Assay outcomes (PubChem)
FGF22 binding = binders of recombinant human FGF22 by thermal shift; Q9HCT0; calls only at 9.99 µM; 1.5% of 340,000 active; SYPRO orange fluorescence; percent of sucrose octasulfate shift, DMSO zero;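 active means melting point raised past a set limit in the mean and every replicate; inconclusive means no clear call; three in four hits are not shown here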
Target sequence (Q9HCT0 whole entry, looked up): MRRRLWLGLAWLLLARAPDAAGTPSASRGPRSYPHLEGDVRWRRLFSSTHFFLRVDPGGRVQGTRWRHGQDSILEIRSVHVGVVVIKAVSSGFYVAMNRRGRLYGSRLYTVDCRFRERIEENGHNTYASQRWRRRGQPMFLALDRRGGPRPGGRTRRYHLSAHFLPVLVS
RanGTP-Imp inh = disruptors of Ran-importin-beta complex formation – biochemical, FRET, CFP-Ran, YFP-importin-beta, homogeneous, primary screen; cell-free CFP-Ran/YFP-importin-beta FRET ratio; inhibition, % (no concentration beside the values); 1.1% of 300,000 active;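 active means most replicates above 15%; inconclusive means exactly half above 15%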;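 further: 0% = DMSO wells and 100% = Ran loaded with GDP instead of GTP; wells of about 40 µL received 100 nL stock; the first replicate is given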
Ecoli growth = blocks Escherichia coli growth; OD600, 23 h; active compounds read low; OD600 absorbance (concentration not given with the values); 0.21% of 330,000 active; AID 1053175;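 active means OD600 absorbance below the run mean of sample wells minus 3.6 SD, in any replicate, cut at about 0.56 in these data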;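 further: stock transfer was 300 nL into about 60 µL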
MLL AF4-AF9 inh = inhibitors of human MLL-AF4/AF9 interaction | P42568 | 0.47% of 350,000 active | inhibition, % at 10 µM | AlphaScreen, biotin-AF4 peptide binding to FLAG-AF9;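 active means every replicate reaching a set inhibition limit, whatever the replicate mean, cut at about 25% in these data; inconclusive means mean inhibition reaches that limit but some replicates miss it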;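 further: 0% = plate neutral control median and 100% = total signal loss; the record names both 10 and 1 µM as test concentration; the first replicate is given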
Target sequence (P42568 whole entry, looked up): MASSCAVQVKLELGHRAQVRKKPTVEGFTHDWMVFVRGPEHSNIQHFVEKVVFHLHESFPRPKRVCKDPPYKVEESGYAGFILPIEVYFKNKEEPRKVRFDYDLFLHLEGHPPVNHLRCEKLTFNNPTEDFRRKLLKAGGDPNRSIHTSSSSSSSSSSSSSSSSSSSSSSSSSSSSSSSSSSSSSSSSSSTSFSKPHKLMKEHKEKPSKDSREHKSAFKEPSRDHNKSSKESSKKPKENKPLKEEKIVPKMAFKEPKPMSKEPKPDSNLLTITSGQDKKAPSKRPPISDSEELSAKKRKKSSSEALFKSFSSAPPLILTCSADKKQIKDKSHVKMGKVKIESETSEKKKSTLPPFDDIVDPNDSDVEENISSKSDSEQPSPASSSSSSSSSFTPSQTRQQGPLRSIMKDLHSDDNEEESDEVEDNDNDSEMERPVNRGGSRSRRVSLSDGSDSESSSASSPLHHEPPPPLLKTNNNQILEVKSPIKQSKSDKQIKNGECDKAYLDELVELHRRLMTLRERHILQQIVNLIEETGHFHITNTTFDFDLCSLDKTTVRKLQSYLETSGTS
UCH37 inh = human UCH37 deubiquitinating enzyme inhibition. 0.33% of 330,000 active. purified proteasome/UCH37, Ub-AMC cleavage fluorescence. inhibition, % (concentration not given with the values);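 active means mean of two replicates above 20%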;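 further: 0% = compound-free wells with enzyme and 100% = wells lacking proteasome; stock transfer was 100 nL into about 20 µL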
Target sequence (Q9Y5K5 whole entry, looked up): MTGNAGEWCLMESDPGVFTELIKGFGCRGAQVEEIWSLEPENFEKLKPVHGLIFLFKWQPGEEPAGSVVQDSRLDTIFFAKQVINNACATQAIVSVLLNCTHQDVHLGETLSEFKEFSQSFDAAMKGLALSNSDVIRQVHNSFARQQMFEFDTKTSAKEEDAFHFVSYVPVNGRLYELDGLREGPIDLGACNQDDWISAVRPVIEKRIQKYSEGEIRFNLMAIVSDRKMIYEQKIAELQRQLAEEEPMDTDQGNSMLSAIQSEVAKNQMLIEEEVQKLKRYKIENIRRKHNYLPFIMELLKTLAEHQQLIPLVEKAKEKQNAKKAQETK
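Material: Human UCH37 enzyme supplied as purified proteasome complex | Schedule: 30 min preincubation with enzyme, 25 min cleavage at room temperature | Detection: AMC fluorescence 355/460 nm | Measure: % inhibition of Ub-AMC cleavage fluorescence | Controls: Wells without proteasome as full block, compound-free enzyme plus substrate as uninhibited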
Vif A3G = HIV-1 Vif–A3G interaction blockers – biochemical, TR-FRET, GST-Vif 1-94, biotin-A3G peptide, dose response retest, primary screen (AID 1117319); one-dose inhibition, %; IC50 in µM for titrated hits; 0.57% of 260,000 active; TR-FRET GST-Vif / biotin-A3G peptide binding; higher % means a stronger effect; test concentration not given here; strong numbers were not always called active;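 active means above the screen mean plus three standard deviations and confirmed in dose response; inconclusive means results disagree or hit not tested in dose response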;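 further: Vif residues 1-94 fused to GST binding biotinylated APOBEC3G peptide 110-148; 0% = full assay without inhibitor and 100% = GST in place of GST-Vif; retest series ran down from 100 µM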
HNF4A DNA FP = change in binding of human HNF4 alpha to DNA | activity change, % at 10 µM | HNF4a-FITC DNA binding, fluorescence polarization, 1 h | 0.3% of 360,000 active; in the data active means activity change above about 30%, passing the limit was not always enough;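 further: controls were the assay level and a saturating level of protein; the project sought stronger binding though the title names inhibitors; some compounds called inactive have numbers as strong as hits; positive values seem to mean higher polarization but the record does not say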
Active calls of the source: *; i = inactive; ? = inconclusive; · = not tested or not shown. These rows are one share of the data, so the mix of outcomes need not match the whole.

SMILES	FGF22 binding	RanGTP-Imp inh	Ecoli growth	MLL AF4-AF9 inh	UCH37 inh	Vif A3G	HNF4A DNA FP
CCOc1ccc(C2NC(=O)c3ccccc3O2)cc1 (centres undefined)	·	-3.6	0.669	·	-0.8	7.3%	-2.7
CC(=O)NC(c1ccccc1)c1nc(-c2csc3ccccc23)cs1 (centres undefined)	i	·	·	0.2	·	·	-4.9
CS(=O)(=O)c1ccccc1C(=O)N(CCc1ccccc1)Cc1ccccc1	i	-0.3	0.666	0.1	0.1	·	0.7
Cc1ccc(C(=O)Oc2ccc(C(=O)COC(=O)C3CC(=O)N(Cc4ccco4)C3)cc2)cc1 (centres undefined)	·	2.5	0.639	·	5.2	4.5%	-4.8
CCOc1ccc(CCNC(=O)c2nccnc2C(=O)O)cc1OCC	i	-1.0	0.679	6.7	4.6	-13.0%	-1.5
COc1ccccc1C(CNC(=O)C1CC(=O)N(Cc2ccccc2)C1)N1CCCC1 (centres undefined)	i	·	0.674	0.9	2.9	-3.3%	-2.2
Cn1c(SCC(=O)NC(=O)CN2CCCC2=O)nnc1-c1ccc(F)cc1	i	-1.8	0.691	-1.8	-0.2	-3.1%	1.6
COCCNC(=S)NCc1cccs1	i	-3.2	0.673	-0.4	3.2	·	2.0
Cn1c(-c2cccc(Br)c2)cnc1NCc1cccnc1	·	5.6	0.647	·	1.6	7.4%	3.2
N#Cc1nc(-c2ccc(F)cc2)oc1NCc1ccccc1	i	-1.7	0.724	-6.1	-15.3	-3.2%	-5.1
COCCn1c(SCC(=O)N2CCCc3ccccc32)nc2ccccc2c1=O	·	0.5	0.713	·	4.0	4.9%	1.1
CN(C)S(=O)(=O)c1ccc(Cl)c(C(=O)Nc2ccccc2[N+](=O)[O-])c1	i	-0.6	0.705	0.7	5.6	23.6%	0.6
CC1(C)CC(=O)C(C(N)=NC(=O)c2ccc([N+](=O)[O-])cc2)=C(O)C1	·	-10.0	0.659	-1.5	-1.5	27.4%	-0.5
NC(=O)c1ccc(NC(=O)CNCc2ccccc2Cl)cc1	i	4.1	0.666	-0.3	4.3	·	1.5
C=CCN1CCN(C(=O)c2cc3c(s2)CCCC3)CC1	i	3.2	0.681	-0.6	0.4	-7.8%	2.4
COc1cccc(NC(=O)CSc2nnc3ccc(-c4ccccn4)nn23)c1	i	2.5	0.719	-2.0	-27.5	-15.7%	0.3
COc1ccc2c(c1OC)OCC2C (centres undefined)	i	·	0.658	-3.4	-6.8	-5.3%	2.4
Cc1ccc(S(=O)(=O)NC2CCSC2=O)cc1C (centres undefined)	i	·	0.658	-0.6	4.6	-6.1%	-1.9
CC1=Nn2c(nnc2C2CCCCC2)SC1	·	-3.0	0.635	·	-0.6	1.1%	-2.5
O=C(c1nc2nc(-c3ccc(Cl)cc3)cc(C(F)(F)F)n2n1)N1CCOCC1	·	-3.8	0.726	·	-84.3	1.0%	4.2
COc1ccc(NC(=O)c2cc3c(s2)CCC(C)C3)cc1S(=O)(=O)N1CCOCC1 (centres undefined)	·	-0.4	0.72	·	-4.0	8.4%	0.1
COc1cccc(NC(=O)c2ccc3c(SCC(=O)O)c4c(nc3c2)CCCC4)c1	i	5.5	0.672	-6.9	4.8	·	0.9
CCCC(=O)Nc1nc2ccc(NC(=O)c3ccccc3F)cc2s1	i	0.8	0.694	-2.0	-19.1	·	-7.1
NC(=O)C1CC(=O)N(c2ccc(OCC(=O)Nc3ccccc3F)cc2)C1 (centres undefined)	i	·	0.708	0.2	-3.9	8.8%	-0.4
O=C(N/N=C/c1cc2ccccc2nc1Cl)[C@H]1C[C@@H]1c1ccccc1	·	-0.4	·	·	·	4.3%	-2.5
O=C(CSc1cccc[n+]1[O-])Nc1cc2c(cc1Cl)C(=O)c1ccccc1C2=O	i	-1.5	0.761	9.6	8.5	·	-37.8
O=C(Nc1cccc(F)c1)C1CCCN(c2cnccn2)C1 (centres undefined)	i	0.6	0.69	-2.5	-22.1	1.5%	-2.4
COc1ccccc1NS(=O)(=O)c1cccc(C(=O)NNC(=O)c2ccc(Cl)nc2)c1	·	·	0.721	-6.1	1.7	-8.6%	1.5
COc1ccc(NC(=O)CSc2c3c(nc4ccccc24)CCCC3)c(OC)c1	·	1.9	0.704	·	13.2	-0.5%	0.1
O=C(C[n+]1ccc(/C=N/O)cc1)NC1CCCCC1	i	-3.5	·	-2.1	·	-0.9%	3.6
NC(=O)c1ccccc1NC(=O)CSc1cn[nH]n1	i	1.5	0.668	-0.3	2.3	·	-1.1
Nc1ccn([C@@H]2O[C@H](CNCc3ccc(Oc4cc(-n5cccn5)ncn4)cc3)[C@@H](O)[C@H]2O)c(=O)n1	i	·	·	1.2	·	-4.9%	-0.7
COC(=O)[C@@]1(Cc2ccccc2)[C@H]2C(=O)N(Cc3ccccc3)C(=O)[C@H]2[C@H]2CN=C(SCc3ccc(C)cc3)N21	·	·	0.738	·	0.9	-5.5%	-2.3
Cn1c(=O)c2c(nc(SCc3nc(N)nc(N4CCCCC4)n3)n2C)n(C)c1=O	·	-1.5	0.706	·	0.5	16.9%	-1.7
CCOC(=O)c1cnc2c(c(C)nn2CC)c1NCCN1CCOCC1	i	-1.6	0.738	-0.1	7.2	4.4%	-1.9
COc1cccc(CNC(=O)CCC2CCCN(C(=O)c3cscn3)C2)c1 (centres undefined)	i	2.9	0.71	-26.0	-1.4	?	-2.6
CCOc1ccc(N(C(=O)c2cc3ccccc3oc2=O)C2C=CS(=O)(=O)C2)cc1 (centres undefined)	i	4.5	0.666	0.4	-0.3	-3.2%	1.9
CC(=O)Nc1ccc(Nc2nc(-c3sc(C)nc3C)cs2)cc1	i	-1.6	0.676	-4.4	0.3	·	-0.8
COc1cc2c(cc1OC)C(CC#N)=NC(C)(C)C2	·	-5.8	0.703	·	3.9	13.9%	3.5
CC(C)CN(C(=O)/C=C/c1nc2ccccc2s1)C1CCS(=O)(=O)C1 (centres undefined)	·	7.3	0.634	0.6	-41.2	5.9%	2.2
Nc1[nH]c(N=NC(=O)c2ccccc2)c2ccccc12	i	1.3	0.628	-9.9	13.8	-7.9%	1.3
C=C(C)C1Cc2c(C)nn(-c3nc(C)cc(C)n3)c2C1 (centres undefined)	·	0.7	0.765	·	-4.0	13.4%	-7.5
CCOC(=O)C(Cc1ccnc2ccccc12)=NO	i	·	0.645	-0.6	0.1	-3.1%	-1.1
C[C@]12CCC3C(CC[C@H]4CC(O)CC[C@]34C)C1CC/C2=N/O (some centres undefined)	i	-1.7	·	-1.3	·	0.1%	1.2
O=C(CN1C(=O)CCSc2ccccc21)Nc1ccc(F)cc1	·	0.7	0.656	·	-0.3	-0.2%	5.5
CCN1C(=O)c2cccc3c(S(=O)(=O)N(C)C)ccc1c23	i	·	·	-6.2	·	0.6%	0.9
COCCCNc1nc2c(-c3cccc(C(F)(F)F)c3)nnn2c2ccccc12	i	-5.9	0.771	3.0	-346.6	-2.9%	1.5
COc1ccc(NC(=O)N(Cc2cc3cc(C)ccc3[nH]c2=O)CC2CCCO2)cc1 (centres undefined)	i	0.9	0.664	-1.4	-1.7	·	3.1
CSc1nc2n(n1)C(C)C1=C(CCCC1=O)N2 (centres undefined)	i	2.5	0.67	-0.3	-11.7	28.4%	0.7
O=C(O)C[C@H]1c2ccc(C(F)(F)F)cc2S(=O)(=O)N1C1CCCCC1	i	5.7	·	7.5	3.5	·	0.3
CN1C(=O)c2ccc(NC(=O)c3cccc(N4C(=O)CCC4=O)c3)cc2C1=O	i	-1.4	0.686	0.7	-314.2	·	-2.5
CN=C(c1ccco1)n1c(=S)nc(-c2ccco2)n(C)c1=S	·	-0.9	0.758	·	7.0	9.4%	1.3
Cc1cccc(NC(=O)CN2C(=O)S/C(=C\c3ccccn3)C2=O)c1	i	?	0.636	-0.2	3.9	4.7%	-2.6
COc1cccc(-c2nnn(CC(=O)Nc3cc(OC)c(NC(=O)c4ccco4)cc3OC)n2)c1	·	-2.5	0.725	·	-22.2	-2.9%	1.8
COC(=O)c1cc(COc2ccc3oc(C)c(C(=O)OC)c3c2)c(C)o1	i	-3.8	0.667	-1.8	-0.7	0.3%	-0.9
CC(OC(=O)c1cccc(S(=O)(=O)N2CCCC2)c1)C(=O)c1ccccc1 (centres undefined)	i	1.7	0.695	-8.3	1.1	·	2.5
COc1ccc(C)cc1NC(=O)C1CCCN(S(=O)(=O)c2ccc3c(c2)CCCN3C(C)=O)C1 (centres undefined)	i	-1.1	0.666	3.5	3.7	·	-8.1
CSc1nc2nc(-c3ccccc3)cc(C(F)(F)F)n2n1	·	3.8	0.684	·	-26.8	-5.8%	-1.4
COC(=O)C1=C(c2ccc(OC)cc2)OC(=O)C1(C)C	i	5.4	0.727	2.3	3.2	·	-7.2
CC(C)(C)NC(=O)C[C@H]1C[C@H](C(=O)N2CCOCC2)[C@@]2(C)c3[nH]c4cc(-c5ccco5)ccc4c3CCN2C1=O	·	·	0.717	·	-21.5	-6.0%	5.5

Additional results follow.
SMILES	FGF22 binding	RanGTP-Imp inh	Ecoli growth	MLL AF4-AF9 inh	UCH37 inh	Vif A3G	HNF4A DNA FP
COc1ccc(C(=O)C(OP(=O)(OC)OC)c2ccccc2OC)cc1 (centres undefined)	i	·	·	-0.5	·	·	-3.6
N#CCCNCC1(c2ccccc2)CCCC1	·	-0.8	0.785	·	-0.1	-1.9%	-0.1
O=C(NCCO)/C(=C\c1ccc([N+](=O)[O-])o1)NC(=O)c1ccccc1	·	-0.6	0.645	0.3	9.7	5.3%	0.5
Cc1cc2[nH]ncc2cc1NC(N)=S	i	0.9	0.714	0.6	2.0	3.8%	1.9
COc1ccc(CCNc2ncnc3c2c(C)c(C)n3CCCN(C)C)cc1OC	i	-3.6	0.676	9.1	0.9	-4.7%	-0.5
O=c1[nH]c(=S)[nH]nc1Cc1ccc(Cl)c(Cl)c1	i	3.7	0.61	0.5	1.7	-2.0%	4.0
COc1ccc(Cl)cc1C(=O)Nn1cnc2ccccc2c1=O	i	7.0	0.691	-39.8	-1.9	1.6%	0.7
Cc1ccc(OCc2nc(-c3ccccc3)no2)cc1	i	0.7	0.712	6.2	-0.3	18.3%	3.4
CCCn1nc(C(=O)N2CCc3ccccc3C2)c2ccccc2c1=O	·	3.7	0.625	·	3.0	8.1%	-2.0
CC(C)(C)NC(=O)CSc1nncn1NCc1ccccc1	·	-1.6	0.707	·	0.3	4.2%	1.4
NS(=O)(=O)c1ccc(CCNC(=O)c2ccc(CS(=O)(=O)c3ccc(Br)cc3)o2)cc1	i	0.6	0.662	-1.2	2.2	·	6.3
Cc1ccc(NC(=S)Nc2cccnc2)c(S(=O)(=O)N2CCCCC2)c1	·	-3.3	0.684	2.8	7.0	-4.3%	-1.3
O=C(N[C@@H](Cc1ccccc1)C(=O)Nc1ccc(F)cc1)C1CCNCC1	i	2.4	0.671	-0.1	2.9	·	4.6
Cc1cc(C)cc(OC(=O)COc2ccccc2C)c1	i	-0.4	0.66	0.0	2.1	·	-1.4

A draw from above in order of number of heavy atoms, low to high:
SMILES	FGF22 binding	RanGTP-Imp inh	Ecoli growth	MLL AF4-AF9 inh	UCH37 inh	Vif A3G	HNF4A DNA FP
O=c1[nH]c(=S)[nH]nc1Cc1ccc(Cl)c(Cl)c1	i	3.7	0.61	0.5	1.7	-2.0%	4.0
CC(C)(C)NC(=O)CSc1nncn1NCc1ccccc1	·	-1.6	0.707	·	0.3	4.2%	1.4
COc1ccc(Cl)cc1C(=O)Nn1cnc2ccccc2c1=O	i	7.0	0.691	-39.8	-1.9	1.6%	0.7
CN1C(=O)c2ccc(NC(=O)c3cccc(N4C(=O)CCC4=O)c3)cc2C1=O	i	-1.4	0.686	0.7	-314.2	·	-2.5
COc1cccc(NC(=O)c2ccc3c(SCC(=O)O)c4c(nc3c2)CCCC4)c1	i	5.5	0.672	-6.9	4.8	·	0.9
